Methyltransferases: Primary Screen for Target Class Profiling of Small Molecule Inhibitors of Methyltransferases; purified enzyme, MTase-Glo SAH luminescence; hits give low values; 25,000 compounds, 3.9% hits; calls only at 40 µM; AID 1745853, 2022; active = -50% or lower on at least one of six enzymes; inconclusive = the cases between; inactive = as a rule above -30% on all six;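 also: enzymes were COMT GAMT GNMT HNMT NNMT and PNMT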
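Each enzyme was assayed with SAM and its substrate. SAH formation detected by MTase-Glo luminescence; single-point 40 uM screen[…].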
Calls only; i = inactive; u = inconclusive; + = active, no number. % is scaled to controls: 0 for no effect and ±100 for the full control effect. These rows are one share of the data; count on the stated rates, not on these rows.

| SMILES | Methyltransferases |
| --- | --- |
| CCCn1c(=O)c2cc(Cl)ccc2n2c(=O)n(CC(=O)Nc3ccc(C)cc3Cl)nc12 | i |
| CC(c1cccs1)N(C)Cc1ccc(C(F)(F)F)cc1 (centres undefined) | i |
| CC(C)(C)c1cc(C[C@@H]2C[C@H](NS(C)(=O)=O)C2(C)C)no1 | i |
| COc1ccc(N2CCN(C(=O)CCc3nnc4n(Cc5ccccc5)c(=O)c5ccccc5n34)CC2)cc1 | i |
| CCOc1ccc(N2C(=O)c3cc4occc4n3CC2(C)C(=O)NC2CCCCCCC2)cc1 (centres undefined) | i |
| CN1CC[C@H](N(Cc2ccccc2)Cc2ccccc2)C[C@H](O)C1 | i |
| O=C1O[C@@H]2CN(c3ncccn3)C[C@@H]2N1CCc1ccc(F)cc1 | i |
| CCc1ccccc1Nc1nn2c(=O)c3ccc(C(=O)NC4CCCCC4C)cc3nc2s1 (centres undefined) | i |
| CNC(=O)[C@@H]1C[C@@H](O)CN1C1CCN(C(=O)CCc2nc3ccccc3s2)CC1 | i |
| COc1nc2sc(C(=O)NC3CC3)c(N)c2c(C)c1Cl | i |
| COc1ccc(-c2n[nH]n3c2nc(=O)c2ccc(C(=O)NCc4ccccn4)cc23)cc1 | i |
| COc1cc(CO)cc(OC)c1O[C@@H]1O[C@H](CO)[C@@H](O)[C@H](O)[C@H]1O | i |
| COc1c(O)cc2c(c1O)C(=O)O[C@H](C)[C@H]2O | + |
| Nc1ccc(S(=O)(=O)Nc2nccs2)cc1 | i |
| O=C(/C=C/c1ccc(O)cc1)OC1[C@H](O)CC(O)(C(=O)O)C[C@H]1O (some centres undefined) | i |
| COc1ccc(-c2nc(C3CC(=O)N(c4ccc(C)cc4)C3)no2)cn1 (centres undefined) | i |
| Cc1cc(C)cc(N2C(=O)c3cc(-c4ccco4)nn3CC2(C)C(=O)NC2CCCCC2)c1 (centres undefined) | i |
| CCc1ccc(NC(=O)Cn2nc3n(CCc4ccccc4)c(=O)c4ccccc4n3c2=O)cc1 | i |
| CN1C(=O)c2cc(C(=O)NCCN3CCOCC3)nn2CC1(C)C(=O)NCc1ccc(F)cc1 (centres undefined) | i |
| Cc1ccc(NC(=O)CN(C)S(=O)(=O)c2ccc3[nH]c4c(c3c2)CCCC4)nc1 | i |
| CCCn1c(=O)c2ccccc2n2c(SCC(=O)Nc3ccc(C)cc3C)nnc12 | i |
| CC(C)CCn1c(=O)c2ccccc2n2c(SCC(=O)Nc3cc(F)ccc3F)nnc12 | i |
| CCC1(N2CCN(C(=O)c3ccccc3C(F)(F)F)CC2)CCN(C(=O)C(C)C)C1 (centres undefined) | i |
| CCCn1c(=O)c2ccccc2n2c(SCC(=O)Nc3ccc(OC)c(OC)c3)nnc12 | i |
| CCCn1c(=O)c2ccc(C(=O)NCC(C)C)cc2n2c(=O)n(Cc3cccc(Cl)c3)nc12 | i |
| O=C(CCCn1cncn1)NC1CC(c2cc(N3CCOCC3)ncn2)C1 (centres undefined) | i |
| CCC(C)(C)C(=O)N1CCC2(CC1)N(C)C(=O)CS2(=O)=O | i |
| CN1CCN(C(=O)c2cc(C3CC3)[nH]n2)CC12CCNC(=O)CC2 (centres undefined) | i |
| CCCSCCCN1C(=O)c2cc3occc3n2CC1(C)C(=O)NC1CCCCC1 (centres undefined) | i |
| CC(C)NC(=O)c1ccc2c(=O)n(C(C)C)c3nn(Cc4ccc(Cl)cc4)c(=O)n3c2c1 | i |
| NS(=O)(=O)c1ccc(F)c(C(=O)NCCSc2ccccn2)c1 | i |
| Cc1cccc(Cn2nc3n(CC(C)C)c(=O)c4ccc(C(=O)NC5CCCCC5)cc4n3c2=O)c1 | i |
| Cc1noc2c(NC3CCOCC3)cc(-c3ccsc3)nc12 | u |
| O=C(CCc1nnc2n(Cc3ccc(F)cc3)c(=O)c3ccccc3n12)NC1CCCCC1 | i |
| CCc1ccc(NC(=O)CSc2nnc3n(CC(C)C)c(=O)c4ccccc4n23)cc1 | i |
| COC1=C(C(=O)OCc2ccccc2)N(c2c(C)cccc2C)[S+](=O)([O-])c2ccccc21 | i |
| O=C1Nc2ccccc2C2(CCN(C(=O)c3ccccc3F)C2)O1 (centres undefined) | u |
| COCCN1C(=O)c2c(-n3cccc3)c3cc(C)ccc3n2CC1(C)C(=O)NC1CCCCC1 (centres undefined) | i |
| Fc1ccccc1-c1nc2ccn(Cc3ccc(-c4ccc(C(F)(F)F)cc4C(F)(F)F)nn3)cc-2n1 | i |
| Cc1ccc(CCNC(=O)Cn2c(=O)oc3cc(S(=O)(=O)NCc4ccccc4)ccc32)cc1 | i |
| Cc1noc(-c2cccc(OC3CN(C(=O)c4ccco4)C3)c2)n1 | i |
| CC1(C(=O)NC2CCCCC2)Cn2c(cc3sccc32)C(=O)N1CCCc1ccccc1 (centres undefined) | i |
| CCOc1ccccc1NS(=O)(=O)c1cc2[nH]c(=O)[nH]c2cc1Cl | i |
| OC1(c2ccc3c(c2)c2c4n3CCN(Cc3ccccc3)C4CCC2)CCCC1 (centres undefined) | i |
| CC1CCC(NC(=O)C2(C)Cn3c(cc4occc43)C(=O)N2Cc2ccc(OC(C)C)cc2)CC1 (centres undefined) | i |
| CCOC(=O)c1cc2n(n1)CC(C)(C(=O)NC1CCCCC1)N(Cc1ccccc1Cl)C2=O (centres undefined) | i |
| O=C(NCc1ccccn1)Nc1nnc(-c2ccco2)o1 | i |
| Cc1ccc(Nc2ccn3c(=O)n(CC(=O)Nc4cc(F)cc(F)c4)nc3n2)cc1 | i |

Random excerpt: 4 compounds from above, in no set order.
| SMILES | Methyltransferases |
| --- | --- |
| CCc1ccc(NC(=O)CSc2nnc3n(CC(C)C)c(=O)c4ccccc4n23)cc1 | i |
| COc1ccc(-c2n[nH]n3c2nc(=O)c2ccc(C(=O)NCc4ccccn4)cc23)cc1 | i |
| CCCn1c(=O)c2ccccc2n2c(SCC(=O)Nc3ccc(OC)c(OC)c3)nnc12 | i |
| CNC(=O)[C@@H]1C[C@@H](O)CN1C1CCN(C(=O)CCc2nc3ccccc3s2)CC1 | i |

A different layout for some results above:
SMILES: OC1(c2ccc3c(c2)c2c4n3CCN(Cc3ccccc3)C4CCC2)CCCC1 (centres undefined)
- Methyltransferases: i
SMILES: CC1CCC(NC(=O)C2(C)Cn3c(cc4occc43)C(=O)N2Cc2ccc(OC(C)C)cc2)CC1 (centres undefined)
- Methyltransferases: i
SMILES: CCOC(=O)c1cc2n(n1)CC(C)(C(=O)NC1CCCCC1)N(Cc1ccccc1Cl)C2=O (centres undefined)
- Methyltransferases: i
SMILES: O=C(NCc1ccccn1)Nc1nnc(-c2ccco2)o1
- Methyltransferases: i

Remaining list, next part
| SMILES | Methyltransferases |
| --- | --- |
| Cc1nc(-c2ccc(CNC(=O)CN3CCN(c4ncccn4)CC3)cc2)no1 | i |
| Cn1c(=O)c2ccc(C(=O)NC3CCCC3)cc2n2c(=O)n(CC(=O)NCc3ccccc3Cl)nc12 | i |
| Cc1ccc(Nc2ccn3c(=O)n(CC(=O)Nc4ccc(F)cc4C)nc3n2)cc1 | i |
| COc1cc(C)cc(C(C(=O)O)N2CCN(c3cnccn3)CC2)c1OC (centres undefined) | i |
| Cc1ccc(C(=O)N(Cc2ccccc2)S(=O)(=O)c2ccc3c(c2)n(C)c(=O)n3C)cc1 | i |
| c1ccc(Cc2nnc([C@H]3CCN(CC4CCCCC4)C3)o2)cc1 | i |
| CC1CCCCC1NC(=O)C1(C)Cn2c(cc3occc32)C(=O)N1CCc1ccccc1 (centres undefined) | i |
| CCOC(=O)c1cc2n(n1)CC(C)(C(=O)NC1CCCC1)N(Cc1cccc(F)c1)C2=O (centres undefined) | i |
| COc1ccc(-c2noc([C@@H](C)NCc3ccc(F)cc3)c2C(=O)O)cc1 | i |
| COc1ccccc1CCC(=O)N1CC(F)(F)C[C@H]1c1nnc(C)o1 | i |
| COc1ccccc1NC(=O)N1CCn2c(C)ccc2C1C(C)C (centres undefined) | i |
| CCCN1CCN(C(=O)C2(c3ccc(NC(=O)C4CC4)cc3)CCCCC2)CC1 | i |

Structural class: the compounds so far with an NH in an aromatic ring.
| SMILES | Methyltransferases |
| --- | --- |
| COc1ccc(-c2n[nH]n3c2nc(=O)c2ccc(C(=O)NCc4ccccn4)cc23)cc1 | i |
| Cc1ccc(NC(=O)CN(C)S(=O)(=O)c2ccc3[nH]c4c(c3c2)CCCC4)nc1 | i |
| CN1CCN(C(=O)c2cc(C3CC3)[nH]n2)CC12CCNC(=O)CC2 (centres undefined) | i |
| CCOc1ccccc1NS(=O)(=O)c1cc2[nH]c(=O)[nH]c2cc1Cl | i |

Further results.
| SMILES | Methyltransferases |
| --- | --- |
| CC(C)c1noc(C2CCCN(S(=O)(=O)c3cccs3)CCC(=O)NCC2)n1 (centres undefined) | i |
| CCC(C)NC(=O)c1ccc2c(=O)n(C)c3nn(CC(=O)Nc4cccc(Cl)c4)c(=O)n3c2c1 (centres undefined) | i |
| COC1(C2=NCCN2)COc2ccccc2O1 (centres undefined) | i |
| O=[S+]1([O-])[C@@H](c2ccccc2)[C@H](COCc2ccccc2)CN1C1CC1 | i |
| CC1(C(=O)O)CCCC2(C)C1CCC13CC(CCC21)C1(CO)OC31 (centres undefined) | u |
| CC1=C(CC(=O)O)c2cc(F)ccc2/C1=C\c1ccc(S(C)(=O)=O)cc1 | i |
| CCOc1ccc(CN2CCC(c3nnc(Cn4cncn4)n3C)CC2)cn1 | i |
| Cc1nc(C(=O)N2CC(F)(F)C[C@H]2c2nnc(C3CC3)o2)co1 | i |
| CC(C)CCNC(=O)C1(C)Cn2c(cc3ccccc32)C(=O)N1CCc1ccc(Cl)cc1 (centres undefined) | i |
| CCCn1c(=O)c2ccc(C(=O)NC(C)C)cc2n2c(=O)n(CC(=O)c3cccc(Cl)c3)nc12 | i |
| CN(C)CCNC(=O)c1ccc(-c2nnc3ccc(NC(=O)C4CCC4)cn23)cc1 | i |
| O=C(CC1CCCN(c2cn[nH]c(=O)c2)C1)N1CCCCCC1 (centres undefined) | i |

Two of the compounds above, with each value named.
mol: NS(=O)(=O)c1ccc(F)c(C(=O)NCCSc2ccccn2)c1
  Methyltransferases: i
mol: COc1ccc(-c2n[nH]n3c2nc(=O)c2ccc(C(=O)NCc4ccccn4)cc23)cc1
  Methyltransferases: i

(cont.)
SMILES	Methyltransferases
COc1ccc(NC(=O)N2CC(N(C3CCOCC3)S(C)(=O)=O)C2)cc1F	i
CC1CCCN(C(=O)Cn2c(=O)oc3cc(S(=O)(=O)NCc4ccccc4)ccc32)C1 (centres undefined)	i
COc1ccccc1CNC(=O)CC1COCCN1C(=O)c1cnccn1 (centres undefined)	i
CC(C)(C)NC(=O)[C@H]1CC[C@H]2[C@@H]3CC[C@H]4NC(=O)CC[C@]4(C)[C@H]3CC[C@]12C	i
CC(=O)NCC(=O)N1c2ccccc2CC1c1nc(C(C)C)no1 (centres undefined)	i
COc1cccc(CN2C(=O)c3ccc(-c4ccco4)n3CC2(C)C(=O)NCc2ccccc2)c1OC (centres undefined)	i
CC1(C)CC2C(C1)C1(C)CCC13OC3(CO)C2O (centres undefined)	i
CC(C)NC(=O)CCn1ccc2cc(S(=O)(=O)N3CCCCC3)ccc21	i
CC(C)CCNC(=O)C1(C)Cn2c(ccc2-c2ccco2)C(=O)N1CCCc1ccccc1 (centres undefined)	i
C=C1CC/C=C(/CO)C(=O)C[C@@H]2[C@@H]1CC2(C)C	i
CC1(C(=O)NC2CCCCCCC2)Cn2c(cc3occc32)C(=O)N1CCCN1CCCCC1 (centres undefined)	i
COc1cccc(CNC(=O)CCc2nnc3n(Cc4ccc(Cl)cc4)c(=O)c4ccccc4n23)c1	i
CC1(C(=O)NC2CCCCCC2)Cn2c(cc3occc32)C(=O)N1Cc1ccccc1F (centres undefined)	i
NCCCNc1ccc(Nc2nccc(Nc3cc(C4CC4)[nH]n3)n2)cc1	+
CC(C)CCn1c(=O)c2ccc(C(=O)NC3CCCCC3)cc2n2c(=O)n(Cc3ccccc3)nc12	i
O=C1NCCCCCCN(S(=O)(=O)Cc2ccccc2F)[C@H]2CCC[C@@H]12	i
O=C(CN1C(=O)C2(CCNCC2)Nc2ccccc21)NC1CCCCCC1	i
CN(Cc1ccccc1C(F)(F)F)S(=O)(=O)c1cccc(C(F)(F)F)c1	i
COC1CCN(c2cccc(-c3cc(NC(C)=O)nc(-n4nc(C)cc4C)n3)n2)CC1	u
CCCn1c(=O)c2ccc(C(=O)NC3CCCCC3)cc2n2c(=O)n(CC(=O)c3cccc(OC)c3)nc12	i
COc1cccc(CN2C(=O)c3nc4ccccc4n3CC2(C)C(=O)NC2CCCC2)c1OC (centres undefined)	i
CC(C)Cn1c(=O)c2ccccc2n2c(SCc3cccc(Cl)c3)nnc12	i
C=C1C[C@]23C[C@H]1CC[C@H]2[C@@]1(C)CCC[C@@]2(C)C(=O)O[C@@H]([C@@H]3O)[C@@H]12	i
COc1ccc2c(c1)CCC1C2CC[C@@]2(C)C1CC[C@@H]2NCCCCCCN1C(=O)C=CC1=O (some centres undefined)	i
CCc1cc2c(cc3n2CC(C)(C(=O)NC2CCC(C)CC2)N(Cc2cccc(Cl)c2)C3=O)s1 (centres undefined)	i
CN1CCN(Cc2ccc(-c3cnc4[nH]cc(-c5ccc6[nH]ccc6c5)c4c3)cc2)CC1	u
O=C(NC1CCCC1)c1ccc(OC2CCN(C(=O)C3CCCO3)CC2)c(Cl)c1 (centres undefined)	i
CN1CC(=O)N(c2ccccc2F)Cc2c1ncnc2N1CCN(c2ncccn2)CC1	i
c1coc(-c2noc(CN3CCCC3c3nc(-c4ccncc4)no3)n2)c1 (centres undefined)	i
CCC(C)NC(=O)c1ccc2c(=O)n(Cc3ccccc3)c3nn(Cc4cccc(OC)c4)c(=O)n3c2c1 (centres undefined)	i
CC(C)(C)CC(=O)NC[C@H]1O[C@H](Cc2cc(-c3ccc(F)cc3)on2)CC[C@@H]1O	i
Fc1ccc(CNc2ncnc3ccc(F)cc23)cc1	i
NC1CCC(Nc2cc(-c3cccc(NCc4cccc(F)c4)n3)c(Cl)cn2)CC1 (centres undefined)	u
COCCOc1ccnc(-c2noc([C@@H]3CCCN3Cc3ccncc3)n2)c1	i
CC(=O)c1ccc(Nc2nc3c(S(=O)(=O)c4ccccc4)nnn3c3ccc(Cl)cc23)cc1	i
COCc1nc(C2CC(NC(=O)CN3C(=O)CN(C)C3=O)C2)cc(=O)[nH]1 (centres undefined)	i
